Bioassay records: PubChem, several laboratories
Beta2AR agonist: agonists of human beta-2 adrenergic receptor inducing internalization; P07550; Am2.2-beta2AR cells, FAP receptor internalization, flow cytometry; reference of the scale not given here; response, % (concentration not given with the values); 0.43% of 340,000 active;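 active means response above a set limit, near 3 SD of response in nonfluorescent compounds, cut at about 42% in these data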;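 further: stock transfer was 100 nL into about 11 µL; a reference agonist was the positive control; negative values mostly stem from fluorescent compounds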
LANA-H2B inh: blocks KSHV LANA binding to histone H2A/H2B. 0.6% of 320,000 active. cell-free LANA-H2A/H2B peptide, fluorescence polarization. inhibition, % (no concentration beside the values); in the data active means inhibition mostly above about 10%, no sharp cut-off; inactive means mostly below about 6.7%;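 further: stock transfer was 7.5 nL into about 10 µL; 0% = median of vehicle wells and 100% = median of positive control wells; one replicate is shown; the record names a cut of 25% in any replicate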
HNF4A DNA FP: change in binding of human HNF4 alpha to DNA; P41235; HNF4a-FITC DNA binding, fluorescence polarization, 1 h; activity change, % at 10 µM; 0.3% of 360,000 active; AID 1224865; in the data active means activity change above about 30%, passing the limit was not always enough;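 further: controls were the assay level and a saturating level of protein; the project sought stronger binding though the title names inhibitors; some compounds called inactive have numbers as strong as hits; positive values seem to mean higher polarization but the record does not say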
Target sequence (P41235 whole entry, looked up): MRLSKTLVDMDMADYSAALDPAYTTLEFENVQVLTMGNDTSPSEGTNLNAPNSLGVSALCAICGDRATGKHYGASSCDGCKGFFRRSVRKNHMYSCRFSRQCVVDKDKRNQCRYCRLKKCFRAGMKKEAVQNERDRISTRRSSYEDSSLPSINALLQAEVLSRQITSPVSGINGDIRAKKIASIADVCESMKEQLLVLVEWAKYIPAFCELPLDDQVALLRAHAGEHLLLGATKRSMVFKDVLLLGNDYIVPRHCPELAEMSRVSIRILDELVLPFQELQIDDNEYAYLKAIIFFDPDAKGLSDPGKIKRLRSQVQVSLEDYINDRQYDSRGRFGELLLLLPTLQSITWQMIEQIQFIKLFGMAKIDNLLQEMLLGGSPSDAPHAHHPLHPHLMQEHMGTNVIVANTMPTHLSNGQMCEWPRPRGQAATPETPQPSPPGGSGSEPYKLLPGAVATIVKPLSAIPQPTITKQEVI
Vif TR-FRET: inhibitors of Vif binding to APOBEC3G peptide, primary screen, biochemical, TR-FRET, GST-Vif 1-94, biotin-A3G peptide, dose response retest (AID 1117319) | TR-FRET GST-Vif / biotin-A3G peptide binding; higher % means a stronger effect; test concentration not given here; strong numbers were not always called active | inhibition, %; hits with a dose series show IC50 in µM | 0.57% of 260,000 active;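 active means above the screen mean plus three standard deviations and confirmed in dose response; inconclusive means results disagree or hit not tested in dose response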;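 further: Vif residues 1-94 fused to GST binding biotinylated APOBEC3G peptide 110-148; 0% = full assay without inhibitor and 100% = GST in place of GST-Vif; retest series ran down from 100 µM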
E coli growth: E. coli growth inhibition. Escherichia coli growth, OD600, 23 h; hits give low values. OD600 absorbance (test concentration not listed). 0.21% of 330,000 active. AID 1053175;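 active means OD600 absorbance below the run mean of sample wells minus 3.6 SD, in any replicate, cut at about 0.56 in these data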;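 further: stock transfer was 300 nL into about 60 µL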
UCH37 inh: inhibitors of human deubiquitinating enzyme UCH37 | Q9Y5K5 | purified proteasome/UCH37, Ub-AMC cleavage fluorescence | inhibition, % (test concentration not listed) | 0.33% of 330,000 active;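 active means mean of two replicates above 20%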;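 further: 0% = compound-free wells with enzyme and 100% = wells lacking proteasome; stock transfer was 100 nL into about 20 µL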
Target sequence (Q9Y5K5 whole entry, looked up): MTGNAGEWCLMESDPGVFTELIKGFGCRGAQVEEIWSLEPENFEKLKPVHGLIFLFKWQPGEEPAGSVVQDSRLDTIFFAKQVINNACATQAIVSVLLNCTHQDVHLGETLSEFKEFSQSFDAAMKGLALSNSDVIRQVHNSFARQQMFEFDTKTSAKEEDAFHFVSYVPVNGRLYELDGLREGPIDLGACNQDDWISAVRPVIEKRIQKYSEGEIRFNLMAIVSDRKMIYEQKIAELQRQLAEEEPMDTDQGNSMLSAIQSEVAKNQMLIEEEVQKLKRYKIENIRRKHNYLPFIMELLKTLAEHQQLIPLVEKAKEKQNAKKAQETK
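Material: Human UCH37 enzyme supplied as purified proteasome complex | Schedule: 30 min compound-proteasome preincubation then 25 min substrate reaction, room temperature | Detection: AMC fluorescence from Ub-AMC cleavage, excitation 355 nm, emission 460 nm | Benchmarks: Wells without proteasome as full block, compound-free enzyme plus substrate as uninhibited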
A1 inh: inhibitors of the anti-apoptotic protein A1, read as caspase activation; caspase activation, % (no concentration beside the values); MEF A1-2A-BIM cells, Caspase-Glo 3/7 luminescence, 3 h; percent of clofoctol response, vehicle zero; 0.066% of 330,000 active;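 active means over half of replicate activation scores above 10%, or exactly half above 10 with the replicate mean above 10; inconclusive means replicate mean below 10 yet half the replicates above 10; inactive means over half of replicates below 10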;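 further: wells of about 30 µL received 50 nL stock; many hits fall short of the cut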
Active calls of the source: *; ? = inconclusive; · = no result given; & = joins results of further samples.

SMILES	Beta2AR agonist	LANA-H2B inh	HNF4A DNA FP	Vif TR-FRET	E coli growth	UCH37 inh	A1 inh
COc1ccccc1NS(=O)(=O)c1ccc(O)c(C(N)=O)c1	3.3	2.7	-2.9	4.0%	0.707	-1.3	-0.7
O=C(NC(=S)NCC1CCCO1)c1ccc(Br)o1 (stereo unspecified)	-14.8	1.5	4.7	24.1%	0.698	0.1	-0.4
Cc1ccccc1N/C=C/C(=C(C#N)C#N)N(C)C	-15.1	2.6	0.7	-7.3%	0.722	2.6	0.8
Nc1nc(COc2ccc(F)cc2)nc(N2CCCCC2)n1	-9.0	3.8	-0.5	-1.8%	0.738	-1.0	0.0
CSc1ccccc1NC(=O)CN(C)Cc1c(O)ccc2ccccc12	4.0	-4.3	2.8	8.7%	0.677	-0.8	0.3
Cc1cc(NC(=O)c2cc3n(n2)C(C(F)(F)F)CC(c2ccco2)N3)no1 (stereo unspecified)	-21.7	1.4	0.7	-1.0%	0.779	-0.8	-0.1
COc1ccc(CSc2nncn2N)cc1Br	3.6	1.7	-1.7	18.1%	0.702	0.4	0.3
CCOc1ccc(S(=O)(=O)N(C)c2ccc(OCC(=O)Nc3nc4ccccc4s3)cc2)cc1	2.5	-13.3	-2.3	14.1%	0.734	2.6	0.6
CCN(c1ccccc1)c1nc(Cl)nc2c1cnn2C	-3.2	·	1.7	-0.7%	0.709	1.0	·
O=C(COc1ccc(Br)cc1)N1CCN(c2ncccn2)CC1	0.6	·	3.6	-12.8%	0.659	-2.1	·
Cc1cc(C)cc(NC(=S)NC2CC3CCCC(C2)N3CC(C)C)c1 (stereo unspecified)	-9.5	4.0	-0.8	4.6%	0.675	1.9	0.5
S=C(NCCN1CCOCC1)Nc1ccccc1Cl	0.4	-0.6	2.5	1.8%	0.701	3.6	-0.1
CCCCCn1c(SCCOCC)nc2c1c(=O)[nH]c(=O)n2C	19.8	-1.8	-1.5	1.7%	0.791	3.8	-0.1
CCCCC(=O)N(Cc1ccc(-c2ccccc2-c2nn[nH]n2)cc1)[C@H](C(=O)O)C(C)C	·	2.4	·	-13.0%	·	0.3	0.4
O=C(c1nn2cccnc2c1Cl)N1CCN(c2ccccc2)CC1	0.0	-4.0	2.0	6.0%	0.783	2.1	-0.4
COc1ccc(Br)cc1CNC(=O)C1CCC(=O)N1C(C)C (stereo unspecified)	1.6	-0.6	2.0	·	0.703	-3.3	-0.5
C=CCN(c1ccccc1OC)S(=O)(=O)c1cccc(C(=O)OCC(=O)N2CC(C)OC(C)C2)c1 (stereo unspecified)	-3.5	0.8	-2.2	·	0.668	-0.2	0.6
Cc1[nH]nc(N=CC2=C(O)CC(c3ccco3)CC2=O)c1-c1ccccc1 (stereo unspecified)	-18.0&-11.8	-1.8	-1.5&2.7	-3.6%&25.5%	0.675&0.685	-18.0&-5.1	0.5
CC(=O)c1ccccc1-c1csc2ncnc(Sc3nnnn3C)c12	0.6	-0.2	-1.0	·	0.656	1.8	-0.1
COc1ccc(C2/C=C\CN3CCC[C@H]3C(=O)N2Cc2ccc(F)cc2)cc1 (stereo partly specified)	15.9	·	12.8	0.6%	0.705	3.3	·
CC(C)NC(=O)N(C)C[C@H]1Oc2ccc(NS(=O)(=O)c3cn(C)cn3)cc2C(=O)N([C@H](C)CO)C[C@@H]1C	-9.7	2.8	2.0	·	·	4.0	1.1
CS(=O)(=O)N1CCC(C(=O)c2cccc(Cl)c2)CC1	1.1	-0.2	-3.3	?	0.651	1.2	-0.5
CCn1c(=O)n(CC)c2cc(N3CCCC3)c(NC(=O)c3cc(Br)ccc3OC)cc21	·	-5.0	·	·	0.729	1.2	-0.5
CCOc1ccc(NC(=O)CSc2nnc(C)n2CCCOC)cc1	-0.5	-0.5	-5.9	-2.1%	0.65	4.2	-2.0
Cc1cc(N2CCN(CC(O)C(F)(F)F)CC2)c2ccccc2n1 (stereo unspecified)	1.7	-3.5	2.0	-4.8%	0.676	7.9	-0.1
COc1ccc(C(=O)Nc2ccccc2C(=O)NCc2cccnc2)cc1	-4.1	0.9	-1.8	·	0.668	0.5	0.6
CCOC(=O)CSc1ccc2ccccc2n1	6.2	-1.8	-1.8	0.7%	0.712	0.6	-0.1
COc1ccc(C2C(C#N)=C(N)Oc3cc(O)ccc32)cc1Cl (stereo unspecified)	-1.6	-4.3	31.6	·	0.665	0.9	-0.8
O=S(=O)(Nc1ncnc2sc3c(c12)CCC3)c1ccc2ccccc2c1	-7.9	-2.3	0.9	4.7%	0.671	-2.1	0.4
CCc1ccc(Oc2nc([N+](=O)[O-])nn2C)cc1	-3.1	3.0	-4.4	-9.9%	0.71	1.2	0.1
CS(=O)(=O)N(Cc1ccco1)CC(O)Cn1cc(C=O)c2ccccc21 (stereo unspecified)	2.3	-4.9	-0.9	1.1%	0.705	-4.2	0.2
COc1ccc(CNc2cc(NCCCO)c([N+](=O)[O-])c3nonc23)cc1	-33.4	-36.2	-2.4	6.6%	0.688	7.5	0.2
CC1CC(OC(=O)C2CCN(S(=O)(=O)c3ccc(F)cc3)CC2)C(=O)O1 (stereo unspecified)	-3.6	·	-3.8	0.1%	0.664	5.6	·
O=C(CN(C1CCCCC1)S(=O)(=O)c1ccc(Cl)cc1)N1CCOCC1	-6.2	-1.0	5.3	-4.5%	0.69	-0.4	?
O=C(CNC(=O)c1ccccc1)N/N=C/c1cc(Br)ccc1O	-1.6	-10.2	-2.8	-4.2%	·	·	-0.8
Cc1ccc(S(=O)(=O)N(C)C)cc1NC(=O)COC(=O)CCNS(=O)(=O)c1ccccc1	-1.3	·	2.4	12.2%	0.686	3.1	·
Cc1[nH]nc(Nc2ccc(O)cc2)c1[N+](=O)[O-]	-0.3	5.1	0.0	?	0.636	5.0	-0.1
COc1ccc(-c2cc(C(F)(F)F)nc(NCc3cccnc3)n2)cc1	-27.6	-4.7	-0.6	-1.6%	0.699	-16.6	0.2
CCn1c(C)nc2cc(C(=O)N/N=C/c3ccc(OC)c(O)c3)ccc21	-0.2	1.4	2.6	15.5%	·	·	-0.2
O=C(CSc1nccc(=O)[nH]1)Nc1ccc(Br)c(Cl)c1	7.3	0.2	-5.0	-9.9%	0.686	5.9	-0.4
Cc1ccc2nc(NC(=O)CCn3c(=O)sc4ccccc43)sc2c1	-12.2	-2.7	1.2	5.5%	0.764	0.2	-0.4
CCCCn1c(SCC(N)=O)nc2c(sc3ccccc32)c1=O	-2.9	5.2	1.0	-11.9%	0.704	-2.3	0.6
CSc1ccc(Cn2nnc(C(=O)NCCc3ccc(Cl)cc3)c2N)cc1	4.0	-1.3	-0.8	-2.4%	0.724	5.5	0.6
O=C(c1ccc(O)c(Br)c1)c1cc(Br)ccc1O	-4.0	·	-2.1	-5.6%	0.394*	6.6	·
CC(C)COC(=O)/C(C#N)=C/c1c[nH]c2ccccc12	-11.6	-0.5	4.9	0.4%	·	5.2	-1.8
O=C(CN1CCN(S(=O)(=O)c2ccc(F)cc2)CC1)Nc1cccc(C(F)(F)F)c1	9.1	-6.1	0.8	6.7%	0.705	-0.4	0.7
Cc1cccc(C)c1NC(=O)C(c1ccc([N+](=O)[O-])cc1)N1CCCCC1 (stereo unspecified)	1.2	0.9	-1.5	3.3%	0.734	0.9	-1.4
CC1CCN(C(=O)Cn2nnnc2CN2CCOCC2)CC1	3.9	·	-2.0	1.0%	0.713	0.6	·
Cc1csc2c(N3CCN(C(=S)Nc4ccc(C(F)(F)F)cc4)CC3)ncnc12	-15.5	-5.8	2.4	-11.3%	0.653	4.5	0.6
O=C(C[n+]1ccc(C(=O)NCCCO)cc1)c1cccc(Br)c1	3.9	-4.9	0.7	10.7%	0.647	-2.1	0.1
O=C(Nc1ccccc1N1CCN(c2ccccc2)CC1)c1ccccc1	-4.2	4.8	0.9	24.0%	0.706	3.6	2.4
COc1ccc(CNC(=O)C2CCN(C(=O)N(C)C)CC2)c(OC)c1	-2.4	-1.1	-0.5	-3.2%	0.686	2.4	0.8
COC(=O)c1sc(NC(=O)COc2ccc(OC)cc2)nc1C	21.3	5.1	3.8	-2.5%	0.688	-1.2	-0.2
O=c1c2ccccc2c2c(O)nc(-c3ccccc3)n2n1Cc1ccccc1	-5.7	3.1	1.3	-0.8%	0.804	3.2	0.0
CCSc1nc2ccc(N3C(=O)C4C5C=CC(C5)C4C3=O)cc2s1 (stereo unspecified)	-6.0	3.0	-1.8	·	0.717	3.3	0.3
CCOc1ccccc1C(=O)NCC(=O)NNC(=O)c1cccs1	-0.1	-1.9	-2.0	·	0.669	-2.6	-0.2
COc1ccccc1NC(=O)CN1CCN(CC(=O)Nc2cc(NC(C)=O)ccc2OC)CC1	3.1	1.0	0.6	-6.7%	0.77	0.5	0.3
CCOc1ccccc1OCC(=O)Nc1nnc(COC)s1	6.2	4.5	3.3	7.8%	0.717	1.8	-0.5
Cc1ccc(NS(=O)(=O)c2ccc(NC(=O)c3cccs3)cc2)cc1	5.8	-1.6	1.2	1.6%	0.725	-0.8	-0.7
CC(C)[C@H](NC(=O)C1CCN(S(=O)(=O)c2ccccc2)CC1)C(=O)NCc1ccco1	-4.5	-1.4	2.3	0.4%	0.706	5.0	-0.7

New compounds follow.
SMILES	Beta2AR agonist	LANA-H2B inh	HNF4A DNA FP	Vif TR-FRET	E coli growth	UCH37 inh	A1 inh
Cc1ccc(Oc2ccc(Cl)cc2NC(=O)c2ccc(F)cc2F)cc1	6.1	-1.2	3.6	-4.0%	0.684	0.0	0.2
CCOC(=O)[C@H]1[C@H]2COc3ccc(OC)cc3[C@@H]2N2C(=O)c3ccccc3NC(=O)[C@@]12C	17.1	0.5	0.1	·	·	5.3	-0.7
Cc1cccc(OC(C)C(=O)N2CCCN(C)CC2)c1C (stereo unspecified)	-1.3	4.0	1.1	-5.9%	0.71	1.3	0.7
COc1ccc2oc(=N)c(C(=O)Nc3ccc(Br)cc3)cc2c1	1.8	1.8	1.1	·	0.732	1.0	0.1
Cc1cccc(-c2nsc(SCC(=O)Nc3ccc4c(c3)OCO4)n2)c1	-9.5	0.6	-1.1	·	0.704	2.6	-1.1
CCC(=O)N1CCCN(S(=O)(=O)c2ccc(C)cc2)C1c1ccc(OC)cc1 (stereo unspecified)	-9.2	-2.5	2.1	·	0.645	-1.4	-1.2
Cc1nn(-c2ccccc2)c2sc(C(=O)N3CCCCC3)cc12	-3.9	-11.4	-1.5	-2.6%	0.738	4.9	0.4
COc1ccc(NC(=O)c2cccnc2N2CCCC2)cc1	1.1	4.1	-0.3	5.7%	0.717	1.8	0.0
Cc1ccccc1Nc1nc(N)nc(CSc2nncn2C)n1	-5.3	0.6	-2.8	12.7%	0.732	0.1	0.5
Cc1ccc(-n2c(N)c(Br)c(=O)[nH]c2=O)cc1C	-3.5	1.5	2.0	5.8%	0.702	3.0	0.2
O=C(NC1CCCC1)C(c1cc2c(cc1[N+](=O)[O-])OCO2)N1CCCC1 (stereo unspecified)	-5.7	-2.2	-3.7	18.0%	0.72	-2.3	0.2
COc1ccc(N/C=C\C(=O)c2ccc(C)cc2)cc1OC	-4.0	1.6	3.5	·	0.697	-19.5	-0.8

In another format: entries from further up
> Cc1cc(C)cc(NC(=S)NC2CC3CCCC(C2)N3CC(C)C)c1 (stereo unspecified)
  Beta2AR agonist = -9.5	LANA-H2B inh = 4.0	HNF4A DNA FP = -0.8	Vif TR-FRET = 4.6%	E coli growth = 0.675	UCH37 inh = 1.9	A1 inh = 0.5
> COc1ccc(C2/C=C\CN3CCC[C@H]3C(=O)N2Cc2ccc(F)cc2)cc1 (stereo partly specified)
  Beta2AR agonist = 15.9	LANA-H2B inh = ·	HNF4A DNA FP = 12.8	Vif TR-FRET = 0.6%	E coli growth = 0.705	UCH37 inh = 3.3	A1 inh = ·
